SIAE inh – inhibitors of human sialic acid acetylesterase SIAE. SIAE FP-Rh probe binding, fluorescence polarization. inhibition, % at 9.66 µM. 370,000 tested, 0.69% active. AID 1053197;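 active = inhibition above a cutoff: mean of compounds within the control limits plus 3 SD of those, cut at about 17% in these data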;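 also: 0% = plate median of compound wells and 100% = probe without SIAE protein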
Target sequence (Q9HAT2 whole entry, looked up): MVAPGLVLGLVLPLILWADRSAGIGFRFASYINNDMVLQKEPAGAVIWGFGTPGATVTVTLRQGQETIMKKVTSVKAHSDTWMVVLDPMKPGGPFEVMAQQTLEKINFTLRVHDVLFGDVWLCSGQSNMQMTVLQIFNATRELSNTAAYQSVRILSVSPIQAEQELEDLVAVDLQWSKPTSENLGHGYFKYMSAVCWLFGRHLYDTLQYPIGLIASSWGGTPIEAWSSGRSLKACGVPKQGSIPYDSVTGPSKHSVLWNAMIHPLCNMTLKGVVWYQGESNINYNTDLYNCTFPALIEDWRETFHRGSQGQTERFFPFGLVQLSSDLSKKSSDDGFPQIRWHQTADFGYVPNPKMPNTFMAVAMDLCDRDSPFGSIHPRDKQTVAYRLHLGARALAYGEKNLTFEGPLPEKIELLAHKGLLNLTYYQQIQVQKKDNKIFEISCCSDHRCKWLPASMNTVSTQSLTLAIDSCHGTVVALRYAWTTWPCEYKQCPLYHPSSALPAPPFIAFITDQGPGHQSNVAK
TDP2 absorb – TDP2 (human) inhibition, absorbance primary screen; recombinant TDP2, T5PNP hydrolysis, p-nitrophenol absorbance 415 nm; inhibition, % at 12.8 µM; O95551; 370,000 tested, 0.34% active;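 active = inhibition above the mean of all tested compounds plus 3 SD, set per campaign, cut at about 25% in these data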;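 also: 0% = DMSO with enzyme and 100% = buffer with substrate but no TDP2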
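Evaluation: % inhibition relative to enzyme-containing and enzyme-free wells. Material: recombinant human TDP2. Benchmarks: enzyme-free and DMSO wells. Timing: enzyme reaction with compound for 2 h at 37 °C. Compound dosing: 12.8 µM only. Measured by: p-Nitrophenol epi absorbance. Reagent: T5PNP substrate at 5 mM, a TopII-DNA adduct mimic. Replication: single well per compound.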
HTRA1 inhibitor – HTRA1 (human) protease inhibition; recombinant HTRA1, FP-rhodamine activity-based probe, fluorescence polarization; 340,000 tested, 0.5% active; inhibition, % at 5.96 µM; Q92743; in the data active = inhibition above about 36%;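 also: 0% = enzyme with DMSO and 100% = wells lacking enzyme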
NPR2 activator – GC-B (human) receptor activation; P20594; HEK293-GC-B cells, CNP EC30, cGMP TR-FRET; 0% at EC30 CNP, 100% saturating CNP; activation, % at 10 µM; 370,000 tested, 0.11% active; AID 1920062;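 active = activation at 10 µM reaching about 35% in either raw or pattern-adjusted values, limit read from the data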
ABHD4 inh – inhibits mouse alpha/beta hydrolase domain 4; AID 720543; purified mABHD4, FP-Rh probe fluorescence polarization; inhibition, % at 8.92 µM; Q8VD66; 370,000 tested, 0.54% active;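 active = inhibition exceeding the mean over every tested compound plus 3 SD, cut at about 30% in these data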;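 also: 0% = plate median of compound wells and 100% = S159A mutant with DMSO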
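System: mouse ABHD4 enzyme, wild type / Medium: HEPES pH 7.0, NaCl, Pluronic buffer / Reagent: FP-Rh activity-based fluorescent probe / Control set: S159A mutant high control, sample median low control / Detection: fluorescence polarization with parallel and perpendicular emission, 525/598 nm / Schedule: 45 min + 60 min at 25 °C / Compound dosing: 8.92 µM, single dose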
An asterisk follows results filed as active. The list is partial, so the mix of outcomes need not match the whole.

# | SIAE inh | NPR2 activator | ABHD4 inh | HTRA1 inhibitor | TDP2 absorb | molecule
1 | 4 | -4 | 3 | 13 | 18 | COc1cccc(C(=O)Nc2cc3c(cc2N2CCOCC2)n(C)c(=O)n3C)c1
2 | -1 | 1 | 1 | 1 | 5 | O=C(N/N=C/c1ccc(Sc2ccccn2)o1)c1cccc([N+](=O)[O-])c1
3 | 5 | 1 | 1 | 7 | 6 | N#Cc1ccc(CNC(=O)N2CCOCC2)cc1
4 | -4 | -2 | -3 | 0 | -1 | NC(=O)C1CCN(C(=O)Nc2ccccc2)CC1
5 | -6 | -5 | 12 | 4 | -7 | Cc1cc(C)c(/C=C2\C(=O)Nc3ccccc32)[nH]1
6 | -1 | -8 | -1 | 1 | 11 | COc1ccc2c(=O)c3c(=O)n(-c4ccccc4)c(-c4ccc(C)cc4)nc3oc2c1
7 | -1 | -4 | 0 | -22 | 2 | COc1cc2sc3cc(NCC[C@@H]4CCCN4C)ccc3c(=O)c2cc1OC
8 | 3 | -18 | 6 | 13 | -1 | CN[C@@H]1CC[C@H](c2ccc(Cl)c(Cl)c2)c2ccccc21
9 | -10 | 3 | 3 | -10 | -9 | CC(CS(=O)(=O)c1ccc2c(c1)NC(=O)CS2)C(=O)NCc1ccccc1Cl (stereo unspecified)
10 | 3 | -2 | 17 | 61* | -5 | COCc1cc(C)nc(SCC(=O)c2ccc(O)c(O)c2)c1C#N

Grouped by structure, the compounds so far with an aryl thioether with sulfur outside any ring.
# | SIAE inh | NPR2 activator | ABHD4 inh | HTRA1 inhibitor | TDP2 absorb | molecule
2 | -1 | 1 | 1 | 1 | 5 | O=C(N/N=C/c1ccc(Sc2ccccn2)o1)c1cccc([N+](=O)[O-])c1
10 | 3 | -2 | 17 | 61* | -5 | COCc1cc(C)nc(SCC(=O)c2ccc(O)c(O)c2)c1C#N

Structures above shown as hits in HTRA1 inhibitor.
# | SIAE inh | NPR2 activator | ABHD4 inh | HTRA1 inhibitor | TDP2 absorb | molecule
10 | 3 | -2 | 17 | 61* | -5 | COCc1cc(C)nc(SCC(=O)c2ccc(O)c(O)c2)c1C#N

Record cards, from the list above. Screens in order: SIAE inh, NPR2 activator, ABHD4 inh, HTRA1 inhibitor, TDP2 absorb
Shown for O=C(N/N=C/c1ccc(Sc2ccccn2)o1)c1cccc([N+](=O)[O-])c1 → -1, 1, 1, 1, 5
Shown for COc1cccc(C(=O)Nc2cc3c(cc2N2CCOCC2)n(C)c(=O)n3C)c1 → 4, -4, 3, 13, 18
Shown for CN[C@@H]1CC[C@H](c2ccc(Cl)c(Cl)c2)c2ccccc21 → 3, -18, 6, 13, -1

Next compounds
# | SIAE inh | NPR2 activator | ABHD4 inh | HTRA1 inhibitor | TDP2 absorb | molecule
11 | -7 | 0 | -6 | -20 | -3 | CC(=O)O[C@H]1C(=O)[C@]2(C)[C@H]([C@H](OC(=O)c3ccccc3)[C@]3(O)C[C@H](OC(=O)[C@H](O)[C@@H](NC(=O)c4ccccc4)c4ccccc4)C(C)=C1C3(C)C)[C@]1(OC(C)=O)CO[C@@H]1C[C@@H]2O
12 | -31 | -4 | -32 | -35 | 7 | NS(=O)(=O)c1ccc(NC(=O)Nc2ccc(Cl)cc2)cc1
13 | -1 | -5 | -2 | -6 | 3 | O=C(C=Cc1cccs1)c1ccccc1
14 | 4 | 0 | -2 | -3 | 9 | Nc1nc(Cl)c(N)c(NCC2(CO)CC(CCc3ccccc3)C2)n1 (stereo unspecified)
15 | -9 | 3 | -4 | -9 | -2 | Cc1ccc(S(=O)(=O)n2c(C)nc3ccccc32)cc1
16 | -10 | -11 | -20 | -51 | -15 | Cc1ccc(NC(=O)c2sccc2SCc2cccc(C(F)(F)F)c2)cc1

Some of the entries so far, as labelled records.
#12 NS(=O)(=O)c1ccc(NC(=O)Nc2ccc(Cl)cc2)cc1
  SIAE inh = -31
  NPR2 activator = -4
  ABHD4 inh = -32
  HTRA1 inhibitor = -35
  TDP2 absorb = 7
#13 O=C(C=Cc1cccs1)c1ccccc1
  SIAE inh = -1
  NPR2 activator = -5
  ABHD4 inh = -2
  HTRA1 inhibitor = -6
  TDP2 absorb = 3

Compound activity (PubChem)
